Screening results deposited in PubChem by several laboratories.
rRNA inh HTS: inhibits bacterial ribosomal RNA function over humanized ribosomes | hit rate 1.6% among 350,000 | E. coli WT GFP vs humanized-ribosome RFP mutants, fluorescence, 24 h; stronger effect = lower value; DMSO median 0, no signal -100 | GFP signal change (wild-type ribosome), % (test concentration not listed);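 active = significant combined selectivity score with lowered wild-type GFP, culture density cut under 30%, mutant RFP and density less affected; inactive = any of these conditions unmet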; also: one replicate is shown; some compounds called inactive have numbers as strong as hits
Beta2AR agonist: activates human beta-2 adrenergic receptor causing internalization; P07550; Am2.2-beta2AR cells, FAP receptor internalization, flow cytometry; reference of the scale not given here; response, % (concentration not given with the values); hit rate 0.43% among 340,000; AID 504454;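 active = response above a set limit, near 3 SD of response in nonfluorescent compounds, cut at about 42% in these data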;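 also: stock transfer was 100 nL into about 11 µL; a reference agonist was the positive control; negative values mostly stem from fluorescent compounds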
Target sequence (P07550 whole entry, looked up): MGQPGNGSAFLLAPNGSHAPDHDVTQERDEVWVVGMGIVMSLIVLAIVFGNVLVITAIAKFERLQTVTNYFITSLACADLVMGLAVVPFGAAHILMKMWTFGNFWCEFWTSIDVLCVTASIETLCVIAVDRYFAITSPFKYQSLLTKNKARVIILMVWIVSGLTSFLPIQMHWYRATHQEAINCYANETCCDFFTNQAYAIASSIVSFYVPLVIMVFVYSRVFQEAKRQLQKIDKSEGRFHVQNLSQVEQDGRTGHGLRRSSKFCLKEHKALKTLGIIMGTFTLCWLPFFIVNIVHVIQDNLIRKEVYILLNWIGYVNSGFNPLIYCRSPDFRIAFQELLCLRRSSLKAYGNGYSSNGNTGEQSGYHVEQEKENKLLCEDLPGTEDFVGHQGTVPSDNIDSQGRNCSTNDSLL
rRNA inh HTS OD600: further read-out of rRNA inh HTS, marked with its call; OD600 change, %; measured here: OD600 growth;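 optical density of the mix in the first replicate; 0 = DMSO median and -100 = no signal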
rRNA inh HTS RFP: further read-out of rRNA inh HTS, marked with its call; RFP signal change, %; measured here: RFP humanized mutant strains;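 first replicate; 0 = DMSO median and -100 = no signal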
An asterisk follows results filed as active; & = joins results of further samples.

SMILES	rRNA inh HTS	rRNA inh HTS OD600	rRNA inh HTS RFP	Beta2AR agonist
CCc1ccccc1NC(=O)CN1CCN(CC(=O)Nc2ccc3c(c2)OC2(CCCCC2)O3)CC1	13	15	-1.0	1
CSCCC(NC(=O)c1ccc(Cl)cc1Cl)C(=O)N(C)Cc1nc2ccccc2c(=O)[nH]1 (stereo unspecified)	3	10	0.1	7
CCOc1ccccc1C=C1SC(=S)NC1=O	-51	-72	-17	10
CCC1(c2ccc(F)cc2)NC(=O)N(CC(=O)N2CCN(C(=O)c3cccs3)CC2)C1=O (stereo unspecified)	3	9	-0.1	-5
COC1CCC2(C)C(=CCC3C4CC(O)CC4(C)CCC32)C1 (stereo unspecified)	-5	-16	-3.6	-2
[O-][n+]1cccc2cccc(O)c21	2	0	-0.5	-1
C=C(c1ccc2nc(NC(=O)OC)[nH]c2c1)c1cccs1	2	3	22	22
Cc1ccc(S(=O)(=O)CCC(=O)OCC(=O)N(C)Cc2ccccc2)cc1	6	-4	-1.5	-3
O=C(CCOc1cccc(Br)c1)NNC(=O)COc1ccc(F)cc1	5	9	-2.4	-4
COc1ccc(Cl)cc1C=CC=NNC(=O)c1ccncc1	2	5	-2.8	-26
Cc1cc(/C=C2/C(=N)N3C(c4ccccc4)=CSC3=NC2=O)c(C)n1-c1ccc(Cl)cc1	3	1	-5.9	-4
COc1cc2c(cc1OC)C1c3ccc(OC)c(OC)c3OCC1(O)C2 (stereo unspecified)	2	6	-2.9	-10
Cc1ccccc1NC(=O)Cc1nc(COC(=O)C(NC(=O)c2ccccc2C)C(C)C)cs1 (stereo unspecified)	10	7	2.9	3
CCN(C(=O)COC(=O)c1ccccc1Nc1ccccc1)c1c(N)n(Cc2ccccc2)c(=O)[nH]c1=O	0	-15	11	7
Cc1sc(NC(=O)CSc2n[nH]c(N)n2)c(C#N)c1C	-9	-17	7.7	8
CCOc1cc(N2CCOCC2)c(OCC)cc1NC(=O)COC(=O)c1ccc([N+](=O)[O-])o1	-4	0	-2.4	0
CC(=O)Nc1ccc2c(c1)-c1ccc(F)cc1C2=O	1	-14	4.5	3
CCN(C(=O)COC(=O)/C=C/c1ccccc1Cl)c1c(N)n(Cc2ccccc2)c(=O)[nH]c1=O	13	20	-0.6	-2
Cc1cc2c(=Cc3ccc(N(C)C)cc3)c3ccccc3n2[n+]1C	-48	-80	43	-195
COc1ccc(N2CC(C(=O)N3CCN(S(=O)(=O)c4ccc(F)c(F)c4)CC3)CC2=O)c(OC)c1 (stereo unspecified)	7	2	2.8	-10
CCOC(=O)C1Oc2ccccc2C(c2ccc(C)cc2)=C1C(=O)OC (stereo unspecified)	-9	-16	-4.9	10
CCCCN(C(=O)c1ccc(N(C)S(=O)(=O)c2ccc(C)cc2)cc1)c1c(N)n(CC(C)C)c(=O)[nH]c1=O	2	7	1.7	-7
CC(=O)c1cccc(OC(=O)c2ccccc2)c1	-9	-4	-1.1	-1
NC(=O)C1CCCN(C(=O)c2ccc(-c3cccc(Cl)c3Cl)o2)C1 (stereo unspecified)	-13	-30	1.1	4
Cc1cc2c(cc(C(=O)OCC(=O)NC3CCCCC3)n2C)o1	1	5	0.0	-11
CCCCN(C(=O)c1cccc(S(=O)(=O)N2CCN(C)CC2)c1)c1c(N)n(CC(C)C)c(=O)[nH]c1=O	5	5	-2.7	-4
Cc1cc2c(s1)c1cnn(-c3ccccc3)c(=O)c1n2C	6	24	-2.0	-7
Cc1cc(/C=C2\Sc3ccccc3N2C)cc(C)[n+]1CC1CCCO1 (stereo unspecified)	-31	-60	-8.7	-229
C[C@H]1CN([C@@H](C)CO)C(=O)Cc2cc(NC(=O)CCC(F)(F)F)ccc2O[C@H]1CN(C)S(=O)(=O)c1ccc(Cl)cc1	-1&4	-11&-5	-1.2&8.7	2
C[C@@H](NCCCn1ccc(NC(=O)OCc2ccccc2)nc1=O)c1cccc2ccccc12	-53	-81	-21	44*
COc1ccccc1NS(=O)(=O)c1cc(NC(=O)CN2C(=O)NC3(CCCCC3)C2=O)ccc1C	-6	0	-1.4	5
O=C(Nc1ccc(F)cc1)c1ccccc1NC(=O)C1CCCCC1C(=O)O (stereo unspecified)	2	1	0.8	-37
CC1=CC(C)(C)NC(=S)N1c1cccc(Cl)c1	2	2	4.8	-1
COc1cc(OC)c2c(-c3cccc(-c4ccc(OC)c(F)c4)c3)cc(=O)oc2c1	11	16	0.3	16
COc1cccc(NC(=O)CN(C)C(=O)CCNC(=O)c2ccccc2OC)c1	1	0	-1.5	5
COCCN(C(=O)c1cc(S(=O)(=O)N2CCCCC2)ccc1Cl)c1c(N)n(CC(C)C)c(=O)[nH]c1=O	4	5	1.4	-4
O=S(=O)(CCNCc1ccco1)NCc1ccccc1	10	-2	-1.0	-9
CC12CCC(=O)N1C(C(=O)Nc1nccs1)CS2 (stereo unspecified)	8	11	-1.8	-5
Cc1cccc(C(=O)N2[C@@H](C(C)C)COc3cc(Br)ccc3S2(=O)=O)c1	5	11	3.8	2
O=C(NC1CCCCC1)c1cc(C2CC2)nn1-c1ccccc1	-6	-27	0.2	-11

The list goes on, starting with the last 2 of the part before.
SMILES	rRNA inh HTS	rRNA inh HTS OD600	rRNA inh HTS RFP	Beta2AR agonist
Cc1cccc(C(=O)N2[C@@H](C(C)C)COc3cc(Br)ccc3S2(=O)=O)c1	5	11	3.8	2
O=C(NC1CCCCC1)c1cc(C2CC2)nn1-c1ccccc1	-6	-27	0.2	-11
Cn1ncc([N+](=O)[O-])c1C(=O)n1nnc2ccccc21	23	12	2.8	6
O=C(Nc1ccc2ccccc2c1[N+](=O)[O-])c1ccccc1	-19	8	0.1	0
CN(Cc1cccc(F)c1)C(=O)CSc1nnnn1C1CC1	2	1	-3.5	10
CC(=O)OC1COC(OC(C)=O)CO1 (stereo unspecified)	4	18	-1.5	-1
c1ccc2c(c1)CCN(CCCNc1nc3ccccc3n3cnnc13)C2	14	12	1.3	-25
O=C(NC1CCCCCCC1O)c1ccccc1 (stereo unspecified)	11	6	1.1	-63
CCN1CCN(S(=O)(=O)c2ccc(Cl)c(C(=O)N(C)CC(=O)Nc3c(C)cccc3C)c2)CC1	12	12	-1.8	2
C#CCOCCOCCOCCNc1nc(N2CCN(C(=O)Cn3cc(CCO)nn3)CC2)nc(N2CCN(C(=O)[C@H](C)n3cc(CCCN=C(N)N)nn3)CC2)n1	7	10	6.8	-14
O=C(CN1CCCSc2ccccc21)N1CCN(S(=O)(=O)c2cccc(F)c2)CC1	-14	-27	-4.6	2
O=C(Nc1ccc(C(=O)N2CCCCC2)cc1)C1CC1	0	-2	-0.8	-4
O=C(C[C@H]1C[C@H](C(=O)N2CCCCC2)[C@@]2(CCc3ccccc3)c3[nH]c4ccc(Cl)cc4c3CCN2C1=O)NCc1cccc(C(F)(F)F)c1	21	17	0.5	6
CCOC(=O)c1oc2c(CN3CCN(C)CC3)c(O)c(CC)cc2c(=O)c1-c1nc2ccccc2s1	10	1	-5.2	0
Cc1ccc(CN2CCNC(=O)C2CC(=O)NCCCn2ncc3ccccc32)o1 (stereo unspecified)	12	5	0.0	-4
C[C@@]12CCC=C[C@H]1[C@H](c1ccccc1Br)N(Cc1ccccc1)C2=O	-27	-56	-0.9	7
O=C(COC(=O)c1ccc(O)cc1)c1ccc2c(c1)OCCO2	-2	-4	0.5	4
CC1CC2(C)C(=CC1=O)CCC1C2C(O)CC2(C)C1CCC2(O)C(=O)CO (stereo unspecified)	2	0	-2.5	-2
COC(=O)c1sc(NC(=O)COC(=O)C2CCC2)c(C(=O)OC)c1C	8	12	-6.0	-3
COCCCNC(=O)C[C@H]1C[C@H](C(=O)N(C(C)C)C(C)C)[C@@]2(C)c3[nH]c4cc(-c5ccco5)ccc4c3CCN2C1=O	15	10	5.0	8
CC(=O)Nc1nnc(CCS(=O)(=O)c2ccc(Cl)cc2)s1	1	0	-2.2	4
O=c1c2sc3nc(N4CCOCC4)c4c(c3c2ncn1C(c1ccccc1)c1ccccc1)CCCC4	-3	0	-2.4	14
O=C1CSC(=S)N1N=Cc1cccc2ccccc12	-6	-4	8.3	-15
COc1cccc2c1cc1c(=O)n(CC(=O)N3CCN(c4cccc(C)c4C)CC3)nc(C)n12	3	14	-0.2	6
O=c1cc(-c2ccccc2)oc2cccc(O)c12	3	6	-8.6	-13
CC(C)(Oc1ccc(Cl)cc1)C(=O)OCC(=O)NCCc1ccc(S(N)(=O)=O)cc1	4	0	3.1	1
CCN(C(=O)CSc1ncccn1)c1c(N)n(Cc2ccccc2)c(=O)[nH]c1=O	19	9	2.0	9
CC1Cc2cccc3ccc(=O)n(c23)C1 (stereo unspecified)	4	3	0.1	1
Cc1ccc(-n2nnnc2SCC(=O)NCC2CCCO2)cc1C (stereo unspecified)	5	-5	2.9	11
CC1=C(C(=O)O)CC(S(=O)(=O)O)C1(C)C (stereo unspecified)	7	15	-2.2	-1
O=CNc1ccc2c(c1)Cc1cccc(NC=O)c1-2	-3	12	-1.8	0
CN1CCC(C(=O)C(=O)O)C1=O (stereo unspecified)	5	9	-2.3	5
C1=NN(c2ccccc2)C=NN1c1ccccc1	9	17	-1.1	-9
C=Cc1cc2c(cc1O)CCC1C2CCC2(C)C(O)CCC12 (stereo unspecified)	-50	-74	-17	-2
CN(C)C(CNC(=O)c1cccc(S(=O)(=O)N2CCN(c3ccccc3)CC2)c1)c1ccccc1 (stereo unspecified)	3	-32	16	8
CC(=O)Nc1ccc(S(=O)(=O)Nc2cc(S(=O)(=O)N3CCCCC3)ccc2O)cc1	0	-2	-3.0	-1
CS(=O)(=O)c1ccc(-c2sc3ccccc3c2C(=O)NCCCN2CCOCC2)cc1	14	7	0.9	11
CC1(C)CC[C@]2(C(=O)n3ccnc3)CC[C@]3(C)[C@H](C(=O)C=C4[C@@]5(C)C=C(C#N)C(=O)C(C)(C)[C@@H]5CC[C@]43C)[C@@H]2C1	1	-2	0.6	59*
Cc1cccc2sc(NC(=O)Cn3c(C)csc3=O)nc12	10	4	3.2	9
O=C(Nc1ccccc1)OCCc1ccccn1	4	4	-2.4	-7
O=C1CCCc2c1oc1c2CCCC1	13	12	-1.5	-5
O=[N+]([O-])c1ccc(N=NNc2ccc([N+](=O)[O-])cc2)cc1	5	25	-2.2	-1
CCN(C[C@H]1N[C@@](Cc2ccccc2)(C(=O)OC)[C@H]2C(=O)N(Cc3ccccc3)C(=O)[C@@H]12)C(C)=O	9	9	-0.2	1
O=C(CC1Sc2ccccc2NC1=O)NNc1cc(Cl)ccc1Cl (stereo unspecified)	-4	15	4.3	4
Cc1ccc(CN2C(=O)C[C@@H](NC(=O)OCC3c4ccccc4-c4ccccc43)C/C=C\C2c2ccc(C)cc2)cc1 (stereo partly specified)	-5	7	-0.3	-1
O=C(O)C1C(c2ccccc2)c2ccccc2C(O)C1CO (stereo unspecified)	4	10	0.1	1
CCN1C(=O)[C@H]2[C@H]3CN=C(SC)N3[C@@](CC)(C(=O)OC)[C@H]2C1=O	19	14	-0.3	-4
C=C1CC(COc2cc(=O)oc3ccccc23)(c2ccccc2)OC1=O (stereo unspecified)	14	9	2.9	72*
Cc1noc(C)c1S(=O)(=O)N1CCN(c2ccccc2Cl)CC1	4	9	-1.8	-2
Cc1ccc(C(=O)OCC(=O)NC2CCCCCC2)c(C)c1	0	4	-1.8	-4
CC1CCCN(CC(O)CN2CCN(CC(O)CN3CCCC(C)C3)C(C)C2)C1 (stereo unspecified)	6	8	-0.4	-4
COc1ccc(C(=O)OCC(=O)N2CCc3ccccc32)cc1S(=O)(=O)N1CCOCC1	-8	-13	4.4	-6
O=C(COC(=O)c1cc[n+]([O-])cc1)Nc1ccc([N+](=O)[O-])cc1C(F)(F)F	-5	-1	-4.9	-9
O=C(CC1CCCC1)N1CCN(S(=O)(=O)c2cccc(F)c2)CC1	8	-1	0.2	6
O=[N+]([O-])c1cccc(Oc2ncccc2[N+](=O)[O-])c1	6	11	29	-4
Cc1ccc([C@@H]2CC=C(C(=O)O)[C@H](c3ccc(C(C)(C)C)cc3)N2S(=O)(=O)c2ccc(C)cc2)cc1	1	-38	3.8	8
C[C@H](CO)N1C[C@H](C)[C@@H](CN(C)CC2CC2)Oc2c(NC(=O)C3CC3)cccc2C1=O	2&4	8&14	0.9&3.6	-3
CCCN1/C(=C(\C#N)C2=NS(=O)(=O)c3ccccc32)N(C)c2ccccc21	1	-2	-2.6	-17

Part of the list above, with two lines to a compound.
Second line of a record: rRNA inh HTS, rRNA inh HTS OD600, rRNA inh HTS RFP, Beta2AR agonist
O=C(CC1CCCC1)N1CCN(S(=O)(=O)c2cccc(F)c2)CC1
→ 8, -1, 0.2, 6
O=[N+]([O-])c1cccc(Oc2ncccc2[N+](=O)[O-])c1
→ 6, 11, 29, -4
Cc1ccc([C@@H]2CC=C(C(=O)O)[C@H](c3ccc(C(C)(C)C)cc3)N2S(=O)(=O)c2ccc(C)cc2)cc1
→ 1, -38, 3.8, 8
CCN1C(=O)[C@H]2[C@H]3CN=C(SC)N3[C@@](CC)(C(=O)OC)[C@H]2C1=O
→ 19, 14, -0.3, -4
O=C(O)C1C(c2ccccc2)c2ccccc2C(O)C1CO (stereo unspecified)
→ 4, 10, 0.1, 1
CC1CCCN(CC(O)CN2CCN(CC(O)CN3CCCC(C)C3)C(C)C2)C1 (stereo unspecified)
→ 6, 8, -0.4, -4

These rows are one share of the data; the hit share may differ from the screen's.
